# Screening results as filed in PubChem BioAssay.
# MbtI inh: MbtI salicylate synthase inhibition; 100,000 tested, 0.89% active; P9WFX0; purified MbtI enzyme, fluorescence intensity read-out; inhibition, %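 (about 17 µg/mL by stock and volumes)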;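 active = above 50% in both replicates, above 80% if mildly self-fluorescent; inactive = the rest, strongly fluorescent compounds included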;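 note: 0% = mean of negative and 100% = mean of positive controls; one replicate is shown; some compounds called inactive have numbers as strong as hits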
# PV pol inh: poliovirus RNA polymerase inhibition | 150,000 tested, 0.66% active | poliovirus polymerase elongation, fluorescence polarization; active compounds read low | % elongation, % (compound at 16.7 µg/mL) | P03300; in the data active = % elongation below about 90%; note: some results filed as inactive read as strong as hits
# Target sequence (P03300 1749-2209 limits assumed): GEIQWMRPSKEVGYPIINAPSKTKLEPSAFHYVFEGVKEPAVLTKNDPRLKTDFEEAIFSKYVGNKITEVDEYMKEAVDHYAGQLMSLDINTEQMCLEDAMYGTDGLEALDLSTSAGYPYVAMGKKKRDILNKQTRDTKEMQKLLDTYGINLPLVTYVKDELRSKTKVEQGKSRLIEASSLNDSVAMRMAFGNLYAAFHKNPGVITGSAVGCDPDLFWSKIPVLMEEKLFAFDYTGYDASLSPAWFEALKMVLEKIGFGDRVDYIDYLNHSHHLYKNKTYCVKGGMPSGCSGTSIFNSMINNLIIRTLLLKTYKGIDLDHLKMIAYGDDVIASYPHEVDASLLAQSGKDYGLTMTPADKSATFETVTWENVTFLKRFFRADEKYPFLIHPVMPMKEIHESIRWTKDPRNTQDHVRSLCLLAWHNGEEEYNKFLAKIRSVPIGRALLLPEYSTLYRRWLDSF
# MenB inh: Mtb MenB enzyme inhibition; 100,000 tested, 0.43% active; AID 540299; inhibition, %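 (about 12 µg/mL by stock and volumes)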; MenB enzyme assay, absorbance read-out; some hits fall short of the stated cut;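 active = mean of two replicates above 30%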;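 note: 0% = no compound and 100% = wells with inactive enzyme; the first replicate is given; strong numbers were not always called active; inactives centre near -10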
# Target sequence (P9WNP5 whole entry, looked up): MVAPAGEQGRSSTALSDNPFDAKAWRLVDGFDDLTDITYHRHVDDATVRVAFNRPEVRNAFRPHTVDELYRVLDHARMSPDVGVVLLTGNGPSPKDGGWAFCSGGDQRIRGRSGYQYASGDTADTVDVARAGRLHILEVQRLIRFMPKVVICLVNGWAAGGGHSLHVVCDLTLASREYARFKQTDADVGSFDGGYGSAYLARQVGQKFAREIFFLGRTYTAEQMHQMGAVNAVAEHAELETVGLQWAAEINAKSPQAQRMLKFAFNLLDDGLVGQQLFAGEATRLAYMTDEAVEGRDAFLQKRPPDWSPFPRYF
# PV pol inh intensity: second read-out of PV pol inh, no call of its own (marks repeat the call); % elongation; measured here: total intensity read-out; formula for this scale not given here;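 total fluorescence in place of polarization; lower means less elongation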
# * hit, by the source's call; nt = no result given; & = joins results of further samples.
# Every second line gives: MbtI inh, PV pol inh, PV pol inh intensity, MenB inh
CN(C(=O)COC(=O)c1cncc(Br)c1)C1CCCCC1
  -3, 100, 103, nt
CCOC(=O)C1CCCN(C2CC(=O)N(c3cc(Cl)ccc3OC)C2=O)C1 (stereo unspecified)
  30, 102, 103, -29
Cc1nc(COc2cccc(Cl)c2)sc1-c1ccnn1C(=O)C1CC1
  9, 101, 102, 4
CCSc1nsc(NC(=O)Nc2cccc(F)c2)n1
  20, 102, 104, 15
Cc1ccc2c(c1)n([O-])c1c([n+]2=O)CCCC1
  19, 103, 101, -10
CC1(C(=O)c2ccccc2)C2c3ccccc3OC(=O)C21C(=O)N1CCOCC1 (stereo unspecified)
  nt, 105, 111, -15
Cc1ccc(-c2[nH]nc3c2C(c2ccccc2)C2=C(CC(C)(C)CC2=O)N3)cc1 (stereo unspecified)
  21, 102, 96, -53
Cc1ccc(-n2nc(C)c(/C=N/NC(=O)Cc3nc4ccccc4n3C)c2Cl)cc1
  0, 105, 109, -1
CN(C)CCNC(=S)Nc1ccc(F)c(Cl)c1
  -1, 100, 105, -14
CC(C1CC1)N(CC(F)(F)F)C(=O)c1cc(S(=O)(=O)N(C)C)ccc1N1CCCC1 (stereo unspecified)
  -5, 102, 112, -19
N#C/C(=C\C1=C(N2CCOCC2)C(=C\c2ccccc2)/CC1)c1nnc2n1CCCCC2
  11, 95, 134, -35
CCOC(=O)c1c(Sc2ccccc2)cnn1C(=O)c1ccc(C(F)(F)F)cc1
  -14, 103, 108, -13
CN1C(=O)c2ccc(-c3ccc(C=C4C(=O)NC(=O)NC4=O)o3)cc2C1=O
  48, 101, 102, -15
CN(Cc1cccs1)C(=O)Cc1ccc2c(c1)OCCO2
  -1, 102, 98, -13
CC(=O)N(C)c1ccc(N=Cc2ccc(O)cc2)cc1
  3, 103, 102, -19
Cc1c(NS(=O)(=O)c2cc(Br)cc3c2N(C(=O)C2CC2)CC3)c(=O)n(-c2ccccc2)n1C
  -7, 100, 103, 7
C/C(=N\O)c1cc2cc(Cl)ccc2oc1=O
  -2, 103, 106, -6
CC1(C)C2CC[C@]3(C)C(C(=O)C=C4[C@@H]5C[C@@](C)(C(=O)O)CC[C@]5(C)CC[C@]43C)[C@@]2(C)CC[C@@H]1O (stereo partly specified)
  -1, 103, 100, -7
O=C(OCn1nnc2ccccc2c1=O)C1CCCCN1S(=O)(=O)c1ccccc1 (stereo unspecified)
  4, 99, 102, 2
CCC(=O)NCc1cc(-c2nn(C)c(=O)c3ccccc23)ccc1OC
  38, 106&102, 110&102, -46
CCN1C(=O)CCC(C(=O)O)C1c1ccc(OC)cc1 (stereo unspecified)
  -5, 103, 105, -14
CCOC(=O)Nc1ccc2c(CNCCCN3CCOCC3)cc(=O)oc2c1
  17, 101, 104, -16
c1ccc2c(c1)CCCc1cc(NCCN3CCOCC3)nnc1-2
  3, 100, 103, -1
COc1ccc(/C=C2\Sc3ccc(C(=O)N4CCOCC4)cc3N(C)C2=O)cc1OC
  3, 101, 104, -17
O=C(OCC(=O)N1CCC(c2ccccc2)=N1)c1cc(=O)[nH]c2ccccc12
  30, 103, 103, 5
CCn1c(SC(C)C)nnc1-c1c[nH]c2ccccc12
  -2, 101, 106, -4
CCn1nc(C(=O)OCC(=O)Nc2ccccc2)c2ccccc2c1=O
  6, 104, 103, -13
CCCN1CCN(CCCNC(=O)c2ccc3c(c2)sc2nc(-c4ccccc4)cn23)CC1
  -37, 106, 101, -26
Cc1ccccc1Nc1nc(N)nc(COC(=O)c2ccccc2)n1
  18, 105, 102, -5
Cc1cc(N2CCOCC2)nc(=S)[nH]1
  12, 102, 102, -2

# Next section, starting with the last five of the part before.
# Every second line gives: MbtI inh, PV pol inh, PV pol inh intensity, MenB inh
CCn1c(SC(C)C)nnc1-c1c[nH]c2ccccc12
  -2, 101, 106, -4
CCn1nc(C(=O)OCC(=O)Nc2ccccc2)c2ccccc2c1=O
  6, 104, 103, -13
CCCN1CCN(CCCNC(=O)c2ccc3c(c2)sc2nc(-c4ccccc4)cn23)CC1
  -37, 106, 101, -26
Cc1ccccc1Nc1nc(N)nc(COC(=O)c2ccccc2)n1
  18, 105, 102, -5
Cc1cc(N2CCOCC2)nc(=S)[nH]1
  12, 102, 102, -2
O=C(CCn1[nH]c(=O)ccc1=O)Nc1nc(SCc2ccc(Cl)cc2)n[nH]1
  -4, 106, 105, -10
COc1ccc(CCNC(=O)C2CCN(Cc3nc(-c4ccccc4F)oc3C)CC2)cc1OC
  6, 104, 105, -16
O=C(COc1ccccc1)NCCn1ccc2ccccc21
  2, 101, 101, 3
CCN1C(=O)C2(C(C#N)=C(N)SC(N)=C2C#N)c2ccccc21
  21, 101, 104, -29
COc1ccc(C(CN)N2CCOCC2)cc1 (stereo unspecified)
  2, 104, 105, 2
CN(C)S(=O)(=O)c1cccc(C(=O)OCC(=O)N2N=C3/C(=C/c4ccco4)CCCC3C2c2ccco2)c1 (stereo unspecified)
  80, 103, 94, -41
CC(C)(C)C1CCNCC1
  7, 101, 101, -62
Cc1cc(OCC(=O)Nc2cccnc2)c(C)cc1Br
  -6, 102, 102, -6
O=C(Nc1ccccc1)Nc1ccc(C2SCCS2)cc1
  -4, 102, 111, -12
CN(C)CC(O)Cn1c2ccc(Br)cc2c2cc(Br)ccc21 (stereo unspecified)
  3, 104&104, 98&97, -8
COC(=O)C1CN(CC(=O)Nc2cccnc2Cl)CCS1 (stereo unspecified)
  -9, 104, 107, -27
Cc1cc(C)c(NC(=S)N(CCN2CCCCC2)Cc2ccco2)c(C)c1
  11, 100, 101, -13
O=S1(=O)CC2(N3CCOCC3)CCCCCCC21 (stereo unspecified)
  -2, 103, 100, -3
S=c1nc(C2CCCC2)nc2sccn12
  6, 95, 91, -5
COc1cc(Br)cc2c1OC1(C)CC2NC(=O)N1 (stereo unspecified)
  -11, 100, 98, -4
O=C(O)c1cccc2cccc(C(=O)O)c12
  -47, 100, 103, 0
O=c1ccc(-c2ccc(S(=O)(=O)NCC3CCN(CCc4cccs4)CC3)s2)n[nH]1
  -19, 102, 102, -15
O=C(O)CCSc1nc2ccccc2o1
  -12, 103, 103, -18
CCN1CCN(C(=S)NCC2CCCO2)CC1 (stereo unspecified)
  -14, 102, 103, -37
CN(C)C(=S)c1ccc(N(C)C)cc1
  41, 102, 99, -31
Cc1cc(O)c(C=Nc2ccccc2)c(=O)o1
  12, 91, 82, 4
CC(C)(C)C(=O)c1sc2nc(-c3cccs3)cc(C(F)(F)F)c2c1N
  nt, 45, 251, -4
Cc1ccc(/C=N/NC(=S)NC2CCCCC2)o1
  4, 103, 105, -17
N#CC1=C2N3CCCCCC3=NN2C(=O)NC1(c1ccccc1)C(F)(F)F (stereo unspecified)
  -5, 104, 105, -3
CCCC(=O)Nc1ccc(-c2cn3ccccc3n2)cc1
  103, 102, 106, -1
Cc1ccc(OCc2ccccc2C(=O)O)cc1C
  13, 103, 105, -6
COc1cc(S(=O)(=O)Nc2ccccn2)ccc1Cl
  90, 105, 100, -53
C=CCn1c(COc2ccccc2)n[nH]c1=S
  nt, 104, 106, -40
CC1CCCN(C(=O)C(C)Nc2cc(Cl)ccc2N2CCOCC2)C1 (stereo unspecified)
  11, 108, 108, -7
O=C(Nc1cccnc1)c1ccc(OCC2CCCO2)cc1 (stereo unspecified)
  -3, 101, 101, -15

# New compounds follow
# Every second line gives: MbtI inh, PV pol inh, PV pol inh intensity, MenB inh
COc1ccccc1/C=C/C(=O)NC1CCCC1
  -55, 101, 101, -16
Cc1nc2ccc(NC(=O)C3CCCC3)cc2s1
  -17, 105, 105, -3
Cc1ccc(NCC(O)CN2c3ccccc3Sc3ccccc32)c(C)c1 (stereo unspecified)
  1, 104, 106, -29
Brc1ccc(-c2csc(/N=C/N3CCCC3)n2)cc1
  4, 106, 108, -12
CC(=O)NN=C1CCC(c2ccccc2)CC1 (stereo unspecified)
  -13, 102, 103, -33
Cc1ccc2c(c1)CCCN2C(=O)NC1CCCCC1
  -6, 105, 102, -23
Cc1ccc(S(=O)(=O)NN2CCN(C)CC2)s1
  27, 101, 100, -10
O=C(COC(=O)C1CCCC1)c1ccccc1Br
  1, 104, 97, nt
CC(C)CN(CC(C)C)CN1C(=O)c2ccccc2C1=O
  nt, 103, 103, -1
Cc1nn(CC(C)C)c2sc(C(=O)NC3CC(C)(C)NC(C)(C)C3)cc12
  23, 102, 107, -17
CC1(CO)COC(COc2ccccc2)=N1 (stereo unspecified)
  -6, 101, 99, -49
Cn1c2c(c(=O)n(C)c1=O)C(C(=O)Nc1ccc(Cl)c(Cl)c1)CC(=O)N2 (stereo unspecified)
  11, 102, 102, -8
Cc1cccc(-c2nnc(-c3ccccc3)o2)c1
  -109, 103, 101, -29
CCCOC(=O)C1=C(C)OC23OC(N)=C(C#N)C12C(=O)c1ccccc13 (stereo unspecified)
  -3, 106, 103, -28
COC(=O)c1c(C)oc(C)c1S(=O)(=O)NCc1ccco1
  -4, 98, 94, -4
Cc1ccc(/C=C(\C#N)C(=O)NCCc2ccccc2)o1
  -2, 128, 144, -4
O=C(/C=C/c1ccccc1)N1CCOCC1
  19, 99, 100, -64
Cc1sc2nc[nH]c(=O)c2c1C
  87*, 94, 96, -9
O=C(Nc1ccc(C(F)(F)F)cc1)Nc1ccc(C(F)(F)F)cc1
  0, 102, 98, -4
CC(C)(C)NCC(O)COc1c(Br)ccc2c1sc1nc3n(c(=O)c12)CCCCC3 (stereo unspecified)
  nt, 69*, 96*, -2
CCn1cc(C(=O)O)c(=O)c2cc(F)c(N3CCN(C)CC3)cc21
  11&78, 104&99, 104&103, 11&2
N#CC1=C(N)SC(N)=C(C#N)C1c1ccncc1
  nt, 108, 120, -82
Cc1oc(-c2cccs2)nc1CN1C(=O)CN=C(c2ccccc2)c2ccccc21
  -3, 107, 104, -22
Cn1ccnc1SCc1cn2ccccc2n1
  -1, 107, 106, nt
COc1ccc(OCCSc2nc(N)cc(N)n2)cc1
  16, 97, 95, -2
Cc1ccc(Cl)cc1N1CCN(CCCNc2nn3nnnc3c3ccccc23)CC1
  -10, 101, 101, 3
CC(C)(C)OC(=O)C(C)(C)S(=O)(=O)c1ccc(C(F)(F)F)cn1
  1, 111, 112, -11
CCOC(=O)c1c(-c2ccccc2)n(S(C)(=O)=O)c2ccc(NS(C)(=O)=O)cc12
  -5, 106, 100, -69
COC(=O)c1cnc(NN2C(=O)C=C(C)C2=O)nc1C(F)(F)F
  53*, 97, 103, -1
Nc1nc(-c2cccs2)c(C(=O)C(F)(F)F)s1
  63*, 100, 101, -6

# (list continues)
# Every second line gives: MbtI inh, PV pol inh, PV pol inh intensity, MenB inh
O=C(CCNc1n[nH]c(=O)[nH]c1=O)N1CCOCC1
  nt, 106, 109, -15
O=S(=O)(c1ccccc1)N1CCCN(S(=O)(=O)c2ccccc2)CC1
  -14, 103, 108, -5
CC1CCN(C(=O)COC(=O)c2ccc(C#N)cc2)CC1
  -5, 100, 105, nt
O=C(C1CC1)N1CCc2cc(S(=O)(=O)Nc3cccc(F)c3)ccc21
  -4, 102, 106, -19
CC(C)(C)NC(=O)CN1CCCNCC1
  2, 103, 99, -16
CCCC12CN3CC(CCC)(CN(C1)C3C(O)C(O)C(O)CO)C2=O (stereo unspecified)
  21, 102, 99, 9
Cc1nc2c(-c3ccccc3)c(C)nn2c(C)c1CC(=O)N1CCCC1
  4, 100, 102, -20
O=C1CCCCCN1Sc1ccccc1
  70*, 102, 100, 9
CCOc1cc(C(=O)O)ccc1OCC(C)C
  -3, 102, 105, nt
CN(C(=O)COC(=O)c1cc(S(=O)(=O)N2CCCCC2)ccc1N1CCOCC1)C1CCS(=O)(=O)C1 (stereo unspecified)
  14, 103, 102, 13
CCc1ccc(Nc2cc(C(=O)NCc3cccs3)c3ccccc3n2)cc1
  17, 102, 105, -26
O=C(N=C1c2ccccc2CN1c1ccc(F)c(Cl)c1)c1ccco1
  -6, 102, 110, -11
CC(=O)NCc1ccc(C(=O)COC(=O)Cc2n[nH]c(=O)c3ccccc23)o1
  -62, 101, 112, -32
CC(C(=O)O)N1C(=O)/C(=C/c2ccc(Cl)cc2)SC1=S (stereo unspecified)
  0, 100, 103, -41
O=C1NC(=Nc2ccccc2)S/C1=C/c1ccc(Cl)cc1
  -10, 102, 106, nt
COc1ccc(-c2nc3ncccn3c2Nc2ccccc2)cc1
  3, 101, 99, -22
CC1CCCCN1C(=O)COc1ncnc2ccc(Br)cc12 (stereo unspecified)
  -11, 102, 105, -20
O=C(NC(Cc1nc2ccccc2n1CCO)c1ccccc1)c1ccccc1 (stereo unspecified)
  1, 104, 103, nt
COC(=O)c1ccc(Nc2nc3ccc(Cl)cc3n3cnnc23)cc1
  4, 90, 122, -20
CC1=C(C(=O)N2CCCC2)C2(CCN(S(=O)(=O)c3cccs3)CC2)OC1=O
  -10, 100, 102, -1
C=CCn1c(=N)n(CC(=O)c2ccc(-c3ccccc3)cc2)c2ccccc21
  -12, 95, 100, -25
O=C(NCC1CCCO1)c1ccc(NS(=O)(=O)c2ccccc2)cc1 (stereo unspecified)
  1, 103, 98, -27
CC(C)Cc1ccc(C(C)C(=O)Nc2cccc(-c3cnco3)c2)cc1 (stereo unspecified)
  -13, 99, 107, 9
COC(=O)c1c(C)oc2ccc(OCc3ccc(Br)cc3)cc12
  11, 104, 107, -29
Cn1nnc2c(NC3CC3)nc(Cc3ccc(Cl)cc3Cl)nc21
  6, 102, 104, -5
O=C(CC1NCCNC1=O)Nc1ccccc1 (stereo unspecified)
  -11, 102, 99, 14
CC(=O)N1CCC(N)=N1
  18, 98, 96, -10
